Screening results from PubChem BioAssay.
Mtb H37Rv – Mycobacterium tuberculosis H37Rv growth inhibition, cell based, confirmatory dose response (AID 1949). inhibition, % at 10 µg/mL, or IC50 in µg/mL where a hit was titrated. most inactive calls were filed without a number and no value below 0 was filed. 100,000 compounds, 1.6% hits;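 active = confirmed in a dose series; inconclusive = about 50% or more but not retested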;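 note: bacteria grown 7 days with compound before Alamar blue readout; 0% = untreated bacteria and 100% = reference antibiotic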
An asterisk follows results filed as active; i = inactive; ? = inconclusive. The list is partial (hit frequency here may not be typical).

structure	Mtb H37Rv
O=C(Cn1cnc2sc(-c3ccccc3)cc2c1=O)NC1CCCCC1	i
CCC(=O)Nc1nnc(SCC(=O)NCCc2ccc(OC)c(OC)c2)s1	i
CNC(=S)NNC(=O)c1sccc1C	0%
Cc1cc(C)cc(NC(=O)CSc2nnc(COc3ccc(C(C)C)cc3)o2)c1	i
CCCC(=O)Nc1cc(C)ccc1OC	4%
O=C(Nc1ccc2nsnc2c1)NC1CC1	i
O=C(Nc1ccccc1Sc1ccccc1)c1ccc(Br)cc1	i
O=C(NC(=S)Nc1ccccc1N1CCCCC1)c1cccc(F)c1	0%
O=C(CSc1nnnn1Cc1ccccc1)n1c2c(c3c1CCCC3)CCCC2	i
COc1cccc(Cn2nc(C)c([N+](=O)[O-])c2C)c1	i
COc1ccc(OCC(=O)NC(=S)Nc2ccc(S(=O)(=O)Nc3cc(C)on3)cc2)cc1	i
COc1ccc(N2CCN(S(=O)(=O)Cc3ccccc3)CC2)cc1	i
Cc1ccc(NC(=O)c2ccccc2F)c(NC(=O)c2ccccc2F)c1	i
CC(NC(=O)c1cccc2ccccc12)C1CC2CCC1C2 (stereo not given)	44%
CC(C)c1ccc2oc(-c3cc(NC(=S)NC(=O)c4cccc(F)c4)ccc3O)nc2c1	i
Clc1ccc(CN2CCN(/N=C/c3ccc(Br)s3)CC2)cc1	2%
Cc1ccccc1NC(=O)NCCCN1CCN(C)CC1	i
Cc1ccc(OCc2nnc(SCC(=O)NCCc3ccccc3)n2-c2ccccc2)cc1C	i
Cc1cccc(-c2noc(COc3cc(C)c(Cl)c(C)c3)n2)c1	0%
O=C(Nc1ccc(N2CCOCC2)cc1)C1CC(=O)N(c2ccc(F)cc2)C1 (stereo not given)	i
O=C(c1ccc(S(=O)(=O)N2CCCC2)cc1)N1CCN(c2ccccc2F)CC1	1%
Cc1ccc(OCC(=O)NC(C)c2ccccc2)c(C)c1 (stereo not given)	4%
CC(C)c1ccc(O)c(NC(=S)NC(=O)c2cncc(Br)c2)c1	?
CC(C)CNC(=O)CC(NCC(C)C)C(=O)O (stereo not given)	i
Cc1cc(C(=O)c2ccccc2)ccc1OC(=O)C1CCCCC1	i
CCc1ccccc1OCC(=O)NC1CCCC1	i
Cc1occc1C(=O)NNC(=S)Nc1ccccc1	0%
CCC(C)Cn1c(COc2ccccc2)nc2ccccc21 (stereo not given)	14%
CS(=O)(=O)NC1CCN(Cc2ccccc2)CC1	1%
Cc1ccc(C(=O)Nc2ccc(O)c(C(=O)O)c2)o1	i
O=C(Oc1ccc(Cl)c2cccnc12)c1ccc(Cl)cc1Cl	12µg/mL*
CCOc1ccc(NC(=O)C(CC)Oc2ccccc2)c([N+](=O)[O-])c1 (stereo not given)	i
CC(=O)C1=C(c2ccccc2)NC(=S)NC1c1cc(Cl)c(OC(C)C)c(Cl)c1 (stereo not given)	8%
CCOC(=O)C1CCN(C(=O)Cn2cc(C(=O)c3ccco3)c3ccccc32)CC1	i
NC(=O)c1c(NC(=O)COc2cccc(C(F)(F)F)c2)sc2c1CCC2	6%
O=c1oc2cc(O)c(Cl)cc2c2c1CCCC2	i
CCCC(=O)Nc1ccc(Cl)c(NC(=O)c2ccc(OCC)c(Br)c2)c1	1%
CCOC(=O)c1ccc(NC(=O)C2CCN(S(C)(=O)=O)CC2)cc1	i
Cc1ccc(-c2c(C(=O)NNC(=S)NCc3ccco3)csc2C)cc1	i
CC1=C(C(=O)Nc2ccccc2C)C(c2ccccc2C)NC(=S)N1 (stereo not given)	i
O=C(CSc1nnnn1-c1ccccc1)N1CCCCC1	i
CCOc1ccc(-c2csc3nc(-c4ccc(F)cc4)oc(=O)c23)cc1	i
CCNC(=O)C(=O)Nc1cc(Cl)ccc1OC	i
CC(C)(C)C(=O)CSc1nc2ccccc2c(=O)n1Cc1ccccc1	i
O=C(NCCOc1ccccc1)c1ccc(C(=O)c2ccccc2)cc1	9%
Cc1csc(NC(=O)c2ccc(Br)o2)n1	i
COC(=O)c1c(NC(=S)N2CCN(S(=O)(=O)c3ccc(Cl)cc3)CC2)sc2c1CCC2	i
COC(=O)c1c(-c2ccc(C)cc2)csc1NC(=O)C1CCCC1	7%
COc1ccc(C)cc1NC(=O)Cn1c(C)c(C=O)c2ccccc21	i
COc1ccc(C(=O)NC(=S)Nc2ccc(N3CCN(C(C)=O)CC3)cc2)cc1Br	i
CCOCC(=O)Nc1ccc(Br)c(C)c1	?
CC(=O)Nc1ccc(NC(=O)Cc2cccs2)cc1	i
NS(=O)(=O)c1ccc(NS(=O)(=O)c2ccc(NC(=O)c3ccccc3[N+](=O)[O-])cc2)cc1	30%
Clc1ccccc1-c1nnn(Cc2ccc(-c3nn[nH]n3)cc2)n1	i
CCOC(=O)C(CCCOc1ccc(Cl)cc1)C(=O)OCC	i
CCc1ccc(-c2cc(C(=O)Nc3ncccc3C)c3ccccc3n2)cc1	i
CC(=O)Nn1c(C)nc2sc3c(c2c1=O)CCCC3	i
CCCN1CCC(NC(=O)Nc2cccc(Cl)c2Cl)CC1	i
Cc1cc(C)n2c(SCc3cccs3)nnc2n1	i
COCCNS(=O)(=O)c1cc(C(C)C)c(C)cc1OC	i

A second format for 4 compounds above:
compound: CC(C)c1ccc2oc(-c3cc(NC(=S)NC(=O)c4cccc(F)c4)ccc3O)nc2c1
- Mtb H37Rv: i
compound: Clc1ccc(CN2CCN(/N=C/c3ccc(Br)s3)CC2)cc1
- Mtb H37Rv: 2%
compound: Cc1ccccc1NC(=O)NCCCN1CCN(C)CC1
- Mtb H37Rv: i
compound: Cc1ccc(OCc2nnc(SCC(=O)NCCc3ccccc3)n2-c2ccccc2)cc1C
- Mtb H37Rv: i

Next entries follow.
structure	Mtb H37Rv
Cc1cccc(N2CCN(C(=O)Nc3ccc(F)cc3F)CC2)c1C	i
Cc1occc1C(=O)Nc1ccccc1Cc1ccccc1	i
CCOc1ccccc1N=C(N)N=C(N)N	0%
Cc1onc(-c2ccccc2)c1C(=O)Nc1ccccc1I	i
COCc1nnc(NC(=O)CN2C(=O)c3ccccc3C2=O)s1	i
Cc1nn(C(=O)N2CCOCC2)c(C)c1CN1C(=O)c2ccccc2C1=O	i
O=S(=O)(Nc1cc(Cl)c(O)c2ccccc12)c1cccs1	6%
O=C(O)CCCC(=O)Nc1nc2n(n1)C(c1ccccc1)C=C(c1ccc(Cl)cc1)N2 (stereo not given)	i
Nc1c(C(=O)Nc2ccccc2F)sc2nc3c(cc12)CCCC3	i
Cc1ccc(NC(=O)CN(c2ccccc2C)S(C)(=O)=O)cc1C	1%
COc1ccccc1NC(=O)CN(c1cc(Cl)ccc1C)S(C)(=O)=O	i
N#CCCN(CCC#N)S(=O)(=O)c1ccc([N+](=O)[O-])cc1	i
COc1ccc(OC)c(NC(=O)C2CCN(S(C)(=O)=O)CC2)c1	i
COc1ccc(S(=O)(=O)N2CCCCCC2)cc1NC(=O)c1ccccc1	i
O=[N+]([O-])c1ccccc1NC1=NS(=O)(=O)c2ccccc21	i
Cc1cc(-c2ccccc2)nc2cc(C(=O)NCc3cccs3)nn12	4%
CCCCOc1ccccc1NC(=O)CCCOc1ccc(Cl)cc1	i
O=C(CSc1nc(-c2ccccc2)cc(=O)[nH]1)Nc1ccccc1F	i
CCc1c(C)sc(NC(=S)Nc2ccc(C(=O)N3CCOCC3)cc2)c1C(=O)OC	i
CCC(C)c1ccc(OCC(=O)Nc2ccc(NC(=O)c3ccco3)c(C)c2)cc1 (stereo not given)	i
COc1cc(CNCCO)cc(Br)c1OCc1ccccc1Cl	?
OCCNCCOc1ccc(OCc2ccccc2)cc1	i
CCOC(=O)c1ccc(NC(=S)NC(=O)c2cc3ccccc3o2)cc1	i
COC(=O)C1=C(C)NC2=C(C(=O)CCC2)C1c1ccsc1 (stereo not given)	i
COc1ccc(C2Nc3ccccc3NC3=C2C(=O)CCC3)c(OC)c1 (stereo not given)	i
O=C(CSc1nc2ncccc2[nH]1)Nc1ccccc1F	i
Cc1ccc(N(C(=O)COc2ccc(C(C)(C)C)cc2)C2C=CS(=O)(=O)C2)cc1 (stereo not given)	i
CCOC(=O)Cc1csc(NC(=O)c2ccc(C)o2)n1	i
CCOc1nc2sc3c(c2c2ncnn12)CCCC3	1%
CC1CN(S(=O)(=O)c2ccc(C(=O)Nc3ccc4ccccc4c3)cc2)CC(C)O1 (stereo not given)	2%
CC(=O)C1=C(C)NC(=O)NC1c1ccc(OC2CCCC2)cc1 (stereo not given)	i
COc1ccc(NC(=O)CN(c2c(C)cccc2C)S(C)(=O)=O)c(OC)c1	i
O=CN1N=C(c2ccc(Cl)cc2)CC1(O)C(F)(F)F (stereo not given)	i
CCC1=NN(C(=O)c2ccc(Br)cc2)C(O)(C(F)(F)F)C1 (stereo not given)	i
Cc1onc(-c2ccccc2)c1C(=O)NCC1CCN(C(=O)c2c(-c3ccccc3)noc2C)CC1	i
CCc1cc(I)ccc1NC(=O)CC12CC3CC(CC(C3)C1)C2	i
CCC(C)NCCCOc1ccccc1OC(C)C (stereo not given)	i
O=C(NCCCCC(NC(=O)C1CCCCC1)C(=O)O)c1ccccc1 (stereo not given)	i
COc1ccc(C2CC(=O)C3=C(C2)NC(C)=C(C(=O)Nc2ccc(C)cc2)C3c2ccc(C)o2)cc1OC (stereo not given)	16%
COc1ccccc1N1CCN(CC(O)COCc2ccc(Cl)cc2)CC1 (stereo not given)	0%
CS(=O)(=O)N(CC(=O)Nc1cccnc1)c1cc(Cl)ccc1Cl	i
CCOC(=O)c1c(NC(=O)c2ccc(I)cc2)sc(C)c1C	i
Cc1cc(C(=O)Nc2ccccc2O)ccc1[N+](=O)[O-]	i
Cc1cccc(NC(=O)c2ccc(C(C)C)cc2)c1C	?
COc1ccc(C2C=C(c3ccc(Br)cc3)Nc3ncnn32)cc1OC (stereo not given)	1%
COc1ccc2nc(SCc3cnc(C)nc3N)[nH]c2c1	3%
CC(C)NS(=O)(=O)c1ccc(OCC(=O)N2CCc3ccccc3C2)cc1	i
Cc1ccc(NC(=S)N2CCCCC2CO)cc1C (stereo not given)	i
CCN(CC)S(=O)(=O)c1ccc(-c2csc(C)n2)cc1	6%
Cc1ccc(S(=O)(=O)N(C)c2ccc(C(=O)Nc3cccc(C(F)(F)F)c3)cc2)cc1	i
O=c1c2oc3cccc4c3n(c=2c(=O)c2ccccc12)CCC4	5.4µg/mL*
CC(=O)Nc1ccc(NC(=O)CN(C)S(=O)(=O)c2ccc(C)cc2)cc1	i
COC(=O)CC1C(=O)NCCN1C(=S)NC(=O)c1ccc(-c2ccccc2)cc1 (stereo not given)	1%
O=C(CSc1ccc(Br)cc1)Nc1ccc2c(c1)OCCO2	3%
O=C(c1ccc(Cl)c(Cl)c1)N1CCN(c2nc(-c3ccccc3)cs2)CC1	i
Nc1nc(SCc2c(Cl)cccc2Cl)n[nH]1	i
S=C(Nc1cccc2ccccc12)N1CCN(c2ncccn2)CC1	i
COc1ccc(-n2cnc3cc(NS(=O)(=O)c4ccc(Br)cc4)ccc32)cc1	6%
Cc1ccc(C)n1-c1ccc(C(=O)O)cc1	i
O=C(Nc1oc2ccccc2c(=O)c1CN1CCCCC1)C(Cl)(Cl)Cl	i

Laid out differently: entries from further up.
O=CN1N=C(c2ccc(Cl)cc2)CC1(O)C(F)(F)F (stereo not given)
  Mtb H37Rv: i
O=c1c2oc3cccc4c3n(c=2c(=O)c2ccccc12)CCC4
  Mtb H37Rv: 5.4µg/mL*
O=C(NCCCCC(NC(=O)C1CCCCC1)C(=O)O)c1ccccc1 (stereo not given)
  Mtb H37Rv: i

(listing goes on)
structure	Mtb H37Rv
COc1ccc(-c2cc(C(=O)N/N=C/c3ccc(F)cc3)[nH]n2)cc1	i
Cn1c(CNC(=O)c2cccc(Cl)c2)nnc1SCC(=O)Nc1cc(Cl)c(Cl)cc1Cl	i
Cc1cccc(C)c1NC(=O)COc1cc(O)c2c(=O)cc(-c3ccccc3)oc2c1	15%
CSc1nc2c(ccc3ccccc32)o1	i
COC(=O)c1cc(OC)c(OC)cc1NC(=O)NS(=O)(=O)c1ccc(C)cc1	i
CCOC(=O)c1ccc(NC(=O)CCc2ccc(S(=O)(=O)NC3CCCCC3)cc2)cc1	i
Cc1ccc(C(C)C)c(OCC(=O)Nc2ccc(S(=O)(=O)NCCc3ccccc3)cc2)c1	8%
COc1ccc(C)cc1NC(=S)Nc1cccc2ccccc12	i
CC(C)CC(=O)Nc1ccc(C#N)cc1	i
Nc1cccc(Cl)c1N1CCCCC1	i
COc1ccc(-c2nnc(SCC(=O)Nc3cccc(C)c3C)n2C)cc1	2%
Cc1ccc2cc(C)c(N3CCN(c4ccc(F)cc4)CC3)nc2c1	2%
C#CCOc1c(Cl)cc(C=O)cc1OCC	i
CC1=CCC2C(=O)N(C(CC(C)C)C(=O)O)C(=O)C2C1 (stereo not given)	i
O=C(Nc1nccs1)c1ccc(COc2ccc(Cl)cc2Cl)o1	16%
CCOc1cc(C(=O)N2CC(C)OC(C)C2)cc(OCC)c1OCC (stereo not given)	i
COc1cccc(OC)c1OCCCCN1CC(C)CC(C)C1 (stereo not given)	i
COc1ccc(S(=O)(=O)N(C(C)=O)c2ccc3oc4c(c3c2)CC(C)CC4)cc1[N+](=O)[O-] (stereo not given)	1%
Cc1ccc(CC(=O)Nc2ccc([N+](=O)[O-])cc2C)cc1	i
OCCCc1cn(-c2ccccc2)c2ccccc12	2%
